Source: PubChem (National Center for Advancing Translational Sciences (NCATS))
PINK1 expr mod – A Quantitative High throughput Screen to Identify Chemical Modulators of PINK1 Expression; AID 624263, 2012; 410,000 compounds, 0.2% hits; PINK1 immunofluorescence, high-content cytometry, 24 h; Potency, µM (series often up to 76.6 µM), inactives show top-dose activation (PINK1 increase), hits mostly activators; active = well fitted activation curve with a large enough effect; inconclusive = small, poorly fitted or top-dose-only effect; inactive = flat fitted curve, though single readings scatter; cell line not stated here;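 note: % of control where 0% means no effect; nearly all actives have a fitted effect of over 65% in size; a mitochondrial uncoupler was the plate control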
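Fluorescence from anti-PINK1 antibody, together with nuclear and cell stains, was scanned on a laser-scanning cytometer. Before staining, stable-line cells were incubated 24 hours with compounds at 5 concentrations; primary antibody 12 h at 10 degrees C.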
* hit, by the source's call; u = inconclusive. Potency is the fitted concentration of half-maximal effect. This is a subset; count on the stated rates, not on these rows.

PINK1 expr mod,Structure
-0.8%,Cc1ncsc1CCC(=O)N1CCCC(c2nc(-c3ccncc3)ncc2-c2ccccc2)C1 (stereo not given)
-0.9%,COc1ccc(C(=O)N2CCC3(CCN(Cc4nccs4)CC3)CC2)cc1
0.7%,COCC(=O)N1CCC2(CCCN(C(=O)Nc3ccccc3)C2)CC1
2.0%,COc1ncc2nc(-c3ccc(F)cc3)c(=O)n(CCc3ccccc3)c2n1
0.2%,N#CN1CCC(NS(=O)(=O)c2ccc(C(F)(F)F)cc2)C1 (stereo not given)
-0.2%,CCNc1ncc2ncc(=O)n(Cc3cccc(OC)c3)c2n1
1.6%,COC(=O)N1CCC2(CCCN(Cc3ccccc3OC)C2)CC1
-0.1%,CC(C)CN1CC[C@@]2(CCCN(C(=O)c3cnccn3)C2)C1
0.9%,COc1cccc(Cn2c(=O)c(-c3cccs3)nc3cncnc32)c1
3.1%,COc1ccccc1CNc1nc(-c2ccccc2CN(C)C)nc2ccccc12

Some values from the entries so far.
PINK1 expr mod, COCC(=O)N1CCC2(CCCN(C(=O)Nc3ccccc3)C2)CC1 : 0.7%
PINK1 expr mod, COC(=O)N1CCC2(CCCN(Cc3ccccc3OC)C2)CC1 : 1.6%
PINK1 expr mod, COc1ccccc1CNc1nc(-c2ccccc2CN(C)C)nc2ccccc12 : 3.1%
PINK1 expr mod, CCNc1ncc2ncc(=O)n(Cc3cccc(OC)c3)c2n1 : -0.2%

More structures
PINK1 expr mod,Structure
-0.7%,N#CCCn1c(=O)cnc2cnc(N3CCNCC3)nc21
0.3%,COc1cccc(CNC(=O)c2c(OC)cc(=O)n3c2CCN(C(=O)c2ccoc2C)CC3)c1
1.0%,N#Cc1cccc(-c2nccc(NCc3cccs3)n2)c1
0.3%,COCC(=O)N1CCC2(CC1)CN(c1ccccn1)C2
3.1%,CN(C)c1cc(-c2cccc(NS(C)(=O)=O)c2)ncn1
2.1%,Cc1noc(C)c1-c1ccc2ncnc(N3CCC(C(=O)O)CC3)c2c1
0.4%,C=C1CCC(OC(C)=O)/C(C)=C/CC2[C@H]1CC2(C)C (stereo not given in full)
-0.2%,O=S(=O)(c1ccccc1)N1CCC2(CCN(c3ncccn3)CC2)CC1
0.4%,COc1cc(-c2nc(C)cnc2C)cc2c1OCCN(C(=O)Cc1cc(OC)c(OC)c(OC)c1)C2
-1.0%,COCC(=O)N1CCC2(CC1)CN(C(=O)Nc1ccccc1)C2
-2.3%,C[C@@]12C(=O)OC(=O)[C@@]1(C)C1CCC2O1
-0.2%,COc1ccc2ccccc2c1CN1CCOc2ccc(CN3CCN(CCO)CC3)cc2C1
1.1%,CNC(=O)[C@@H]1C[C@H](NC2CCCCCCC2)CN1Cc1cccc(OC)c1OC
0.7%,OC(c1ccc2c(c1)CN(Cc1cccn1-c1ncccn1)CCO2)C1CCCCC1 (stereo not given)
0.1%,CC(=O)c1ccc[nH]1
-1.3%,OC1(c2cccnc2)CCN(Cc2ccc3c(c2)CN(Cc2ccc4nsnc4c2)CCO3)CC1
-0.6%,O=C(CN1Cc2ccccc2OC(c2ccsc2)C1)N1CCN(Cc2ccc3c(c2)OCO3)CC1 (stereo not given)
-1.3%,CN(C)c1ncc2ncc(=O)n(C[C@H]3CCCO3)c2n1
2.2%,Cc1nc2cnc(Oc3cccc(Cl)c3)nc2n(Cc2ccc(F)cc2)c1=O
-0.9%,COc1ccccc1-c1nc(N2CCOCC2)c2ccccc2n1
-0.2%,OC1(c2cccnc2)CCN(Cc2ccc3c(c2)CN(Cc2ccc(Cl)cc2)CCO3)CC1
-0.7%,NC(CCC(=O)NC(CCSC(CC(=O)O)C(=O)O)C(=O)NCC(=O)O)C(=O)O (stereo not given)
0.3%,COC(=O)C1C(O)CC[C@H]2CN3CCc4c([nH]c5ccccc45)C3C[C@H]12 (stereo not given in full)
3.1%,COCCn1c(=O)c(-c2cccc(C#N)c2)nc2cnc(N3CCN(C)CC3)nc21
0.6%,FC(F)(F)c1ccccc1-c1cc(NCc2cccnc2)ncn1
-0.3%,CN1CCN(c2ncc3nc(-c4cn(C)c5ccccc45)c(=O)n(C)c3n2)CC1
1.3%,Cc1noc(C)c1-c1ccc2ncnc(N3CCN(C)CC3)c2c1
-0.2%,COc1cccc(CNC(=O)c2c(OC)cc(=O)n3c2CCN(C(=O)c2cc(F)cc(F)c2)CC3)c1
-0.4%,FC(F)(F)c1ccccc1-c1nc(NC2CCNCC2)c2ccccc2n1
1.1%,Cc1cc(C)nc(S[C@H]2C[C@@H](C(=O)N3CCN(c4ccccc4F)CC3)N(Cc3ccccc3F)C2)n1
0.3%,CCC1(C2CCN(C(=O)c3ccccc3Cl)CC2)NC(=O)N(CCc2scnc2C)C1=O (stereo not given)
1.0%,COc1ccc(Oc2ncc3nc(-c4cc(F)cc(F)c4)c(=O)n(C[C@H]4CCCO4)c3n2)cc1
-0.3%,Clc1ccccc1-c1nc(-n2ccnc2)c2ccccc2n1
1.1%,Cn1cccc1C(=O)N1CCC2(CCN(C(=O)Nc3ccccc3)CC2)CC1
0.0%,O=C(Oc1ccccc1)N1CCC2(CC1)CN(c1ccccc1)C2
0.0%,COc1ccccc1CNc1nc(-c2ccc(C(=O)N(C)C)cc2)nc2ccccc12
-0.4%,CC(C)C(NC(=O)c1ccoc1)c1nnc2n1CCN(Cc1ccc3c(c1)Cc1ccccc1-3)CC2 (stereo not given)
-0.4%,CC(C)NC(=O)N1CCCC2(CCN(C(=O)c3cccn3C)CC2)C1
-0.9%,COc1c(O)cccc1[C@H](O)C1CCN(CCc2ccc(F)cc2)CC1
-0.9%,COc1c(F)cc2[nH]c3c(c2c1F)CCNC3=O
-0.6%,O=c1c(-c2cccs2)nc2cncnc2n1C1CC1
0.8%,Cc1cc(C(=O)NCC2CCC3(CCN(Cc4ccccc4C)CC3)O2)n(C)n1 (stereo not given)
0.3%,Nc1nc2c([nH]c(=S)n2C2OC(CO)C(O)C2O)c(=O)[nH]1 (stereo not given)
-0.9%,Cn1c(SCC2CCCO2)nnc1C1CCN(Cc2ccc(-c3cccc(Cl)c3)o2)CC1 (stereo not given)
0.3%,FC(F)(F)c1ccccc1-c1nccc(-n2ccnc2)n1
u,COc1ccc(C(=O)c2ccccc2)c(O)c1O
-0.1%,CO[C@H]1[C@H](NC(=O)c2ccco2)c2ccccc2C12CCN(Cc1cnn(-c3ccccc3)c1)CC2
0.7%,COc1ccc(NC(=O)C2CC23CCN(Cc2cccc4ncccc24)CC3)cc1Cl (stereo not given)
4.4%,FC(F)(F)c1cc(CN2CCC3(CCNCC3)CC2)cc(C(F)(F)F)c1
1.5%,Cc1oc(-c2cccc(NC(=O)C3CCCN(C)C3)c2)nc1CNC(=O)c1coc2c1C(=O)CCC2 (stereo not given)

Arranged by the number under PINK1 expr mod (rising): four from the list above
Structure | PINK1 expr mod
Cn1c(SCC2CCCO2)nnc1C1CCN(Cc2ccc(-c3cccc(Cl)c3)o2)CC1 (stereo not given) | -0.9%
CO[C@H]1[C@H](NC(=O)c2ccco2)c2ccccc2C12CCN(Cc1cnn(-c3ccccc3)c1)CC2 | -0.1%
COc1ccc(NC(=O)C2CC23CCN(Cc2cccc4ncccc24)CC3)cc1Cl (stereo not given) | 0.7%
Cc1cc(C(=O)NCC2CCC3(CCN(Cc4ccccc4C)CC3)O2)n(C)n1 (stereo not given) | 0.8%

Other structures.
PINK1 expr mod,Structure
15%,O=C(O)c1ccc2c(c1)C(=O)N([C@H](Cc1cccc3ccccc13)C(=O)O)C2=O
0.5%,CN(C)C(=O)c1ccc(-c2cc(NCc3cccs3)ncn2)cc1
4.7%,CC1(C)c2[nH]c3ccccc3c2C[C@H]2C(=O)N(Cc3ccc(F)cc3)C(=O)N21
-0.5%,COC(=O)C1CCCCN1Cc1ccc2c(c1)CN(C(=O)c1ccc(C)s1)CCO2 (stereo not given)
1.0%,COc1ccc(Oc2ncc3nc(C)c(=O)n(CCC#N)c3n2)cc1
-0.6%,Cc1noc(C)c1-c1cncnc1NCCN1CCOCC1
-0.5%,Cc1noc(C)c1-c1cc(NCc2ccccc2)ncn1
1.8%,COc1ccc(-n2c(=O)c(-c3ccc(Cl)cc3)nc3cnc(N(C)C)nc32)cc1
9.3%,O=C(NCC1Cc2cc(-c3cnc4ccccc4c3)cc(F)c2O1)c1cnsn1 (stereo not given)
5.7%,C=C1C(=O)OC2C1CC/C(C)=C/CCC1(C)OC21 (stereo not given)
0.0%,Cc1cc2nc(N3CCC(NC(C)c4nc(-c5ccccn5)no4)CC3)nc(C)c2cc1C (stereo not given)
u,COc1cccc(Nc2ncc3nc(-c4cccs4)c(=O)n(-c4ccccc4)c3n2)c1
-0.4%,CC(C)NC(=O)N1CC[C@@]2(CCCN(C(=O)c3csnn3)C2)C1
3.4%,COC(=O)c1cccc(C(=O)NCc2nc(-c3cccc(NC(=O)c4ccoc4C)c3)oc2C)c1
-0.3%,COCC(=O)Nc1cc(C(=O)N2CCCCC2c2nccs2)c2c(c1)nc(-c1ccncc1)n2C (stereo not given)
-0.1%,Cc1c(C(=O)N(C)Cc2cscn2)sc2ncnc(NC[C@H]3CCc4ccccc4O3)c12
1.2%,CN(C)c1ncc2nc(-c3ccc(Cl)cc3)c(=O)n(Cc3ccc(F)cc3)c2n1
8.5%,O=c1cnc2cncnc2n1Cc1ccccc1Cl
1.1%,O=C(c1ccncc1)N1CCC2(CC1)CCN(c1cccc(-c3ccccc3)c1)CC2
0.1%,CCOP(=O)(OCC)c1ccc2c(c1)C(=O)c1ccccc1CC2

2 entries picked at random from those above, as already listed:
PINK1 expr mod,Structure
1.0%,COc1ccc(Oc2ncc3nc(C)c(=O)n(CCC#N)c3n2)cc1
1.1%,Cn1cccc1C(=O)N1CCC2(CCN(C(=O)Nc3ccccc3)CC2)CC1

Going on with the list:
PINK1 expr mod,Structure
0.2%,COc1cccc(Cn2c(=O)c(-c3ccccc3)nc3cnc(N(C)C)nc32)c1
0.1%,CC(=O)Oc1c(C)cccc1C(=O)O
-1.3%,COc1ccc(-c2nc3cnc(Oc4cccc(Cl)c4)nc3n(C[C@H]3CCCO3)c2=O)cc1
0.8%,CC(=O)NCCNc1ncnc2ccc(-c3ccccc3C)cc12
-0.1%,COc1ccc(-c2nc3cnc(OC)nc3n(CCC#N)c2=O)cc1
-0.6%,COC(=O)C1CCN(Cc2ccc3c(c2)CN(C(=O)c2ncc(C)[nH]2)CCO3)CC1
-1.0%,O=C(COC(=O)CNC(=O)c1ccccc1Cl)Nc1ccccc1Cl
7.4%,COc1ccc(Oc2ncc3nc(-c4cccc(C#N)c4)c(=O)n(C)c3n2)cc1
0.3%,O=C(NCCc1nnc2n1CCN(Cc1ccc(F)cc1)CC2)c1ccco1
0.1%,Cn1cccc1C(=O)N1CCC2(CC1)CN(Cc1cc(C(F)(F)F)cc(C(F)(F)F)c1)C2

Sorted by formula weight (largest number first): part of the list above
PINK1 expr mod,Structure
-0.2%,COc1ccc2ccccc2c1CN1CCOc2ccc(CN3CCN(CCO)CC3)cc2C1
-1.0%,O=C(COC(=O)CNC(=O)c1ccccc1Cl)Nc1ccccc1Cl
u,COc1ccc(C(=O)c2ccccc2)c(O)c1O

Remaining list, next part
PINK1 expr mod,Structure
-1.2%,COc1cc(OC)c2c(=O)c(-c3ccccc3)c(C)oc2c1OC
-0.6%,CCC(OC(=O)c1ccc(S(C)(=O)=O)c([N+](=O)[O-])c1)C(=O)NC1C2CC3CC(C2)CC1C3 (stereo not given)
3.6%,Cc1noc(C)c1C(=O)N1CCC[C@@]2(CCN(c3cccc(-c4ccccc4)c3)C2)C1
-0.9%,Cn1nnnc1Sc1ncnc2scc(-c3ccc(C(F)(F)F)cc3)c12
0.3%,O=C(N[C@@H]1c2ccccc2C2(CCN(Cc3c(O)ccc4ccccc34)CC2)[C@H]1O)c1ccccc1
1.2%,Cn1c(=O)c(-c2cc(F)cc(F)c2)nc2cnc(Oc3ccccc3)nc21
-0.2%,CCn1c(-c2ccccc2F)nc2cc(C(=O)NCC3CCOCC3)cc(NC(C)=O)c21
1.8%,COC(=O)c1ccc(CN2CCC3(CCC(CNC(=O)c4ccco4)O3)CC2)cc1 (stereo not given)
0.0%,CN1CCN(c2ncncc2-c2ccc(N(C)C)cc2)CC1
0.7%,Cc1noc(C)c1C(=O)N1CCC2(CCCN(C(=O)NC(C)C)C2)CC1
-0.7%,O=C(c1cscn1)N1CCOc2ccc(CN3CCC(Oc4cccnc4)CC3)cc2C1
-0.3%,COc1ccc(Oc2ncc3nc(-c4cccs4)c(=O)n(Cc4cccc(OC)c4)c3n2)cc1
-0.6%,Cc1cc2nc(N3CCCN(Cc4cccn4-c4ncccn4)CC3)nc(C)c2cc1C
0.7%,O=C(c1csnn1)N1CCC2(CCCN(c3cccc(-c4ccccc4)c3)C2)CC1
8.1%,COc1ccc(C2=Nn3c(nnc3-c3ccccc3Cl)SC2)cc1OC1CCCC1
-1.0%,COc1cc(C(=O)N(Cc2cc3ccc(C)cc3nc2N(C)C)C2CC2)cc(OC)c1OC
0.9%,Cn1cccc1C(=O)N1CCC2(CCN(C(=O)Nc3cccc(F)c3)CC2)CC1
-1.1%,Cc1cccc2nc(CNC(=O)CN3Cc4ccccc4OC(c4ccccc4F)C3)cn12 (stereo not given)
0.0%,Clc1ccccc1-c1ccc2ncnc(NC3CCNCC3)c2c1
-0.1%,O=C1NC(CC(=O)N2CCC(n3c(C4CCC4)nc4cccnc43)CC2)c2ccccc21 (stereo not given)
2.4%,O=c1c(-c2ccccc2)nc2cnc(N3CCOCC3)nc2n1Cc1ccc(F)cc1
1.7%,COc1ccc(CN2CCOc3c(cc(-c4cccc(OC)n4)cc3OC)C2)c(O)c1
-0.6%,Cc1ccsc1C(=O)N(Cc1cc2ccc(F)cc2nc1N1CCC(O)CC1)CC1CCCO1 (stereo not given)
4.4%,c1ccc(Nc2ncnc3ccc(-c4ccc5c(c4)OCO5)cc23)cc1
